Bioassay records (PubChem)
Env_fusion_inh – inhibitors of HIV Env-mediated cell fusion; HeLa-JRFL Env/CEM21 cell fusion, luciferase; AID 651610; actives 1.1% (n = 360,000); inhibition, % at 12.3 µM;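 active = mean replicate inhibition score of at least 50 and every replicate individually at or above 50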;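 note: 0% = plate neutral controls and 100% = maraviroc near 300 nM; one replicate is shown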
Yeast_UUG_start – modulators of start codon recognition fidelity in yeast | S. cerevisiae UUG-firefly luciferase reporter, luminescence/redox ratio | activity score, % at 18.7 µM | actives 0.13% (n = 350,000);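 active = replicate mean at a twofold rise or more, about +100% in these data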;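 note: firefly luciferase made from a UUG start codon reports start codon fidelity; reporter light over untreated wells divided by growth signal over untreated wells; some hits fall short of that in this replicate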
An asterisk follows results filed as active; [ ] = dose if it differs, or a comment. A portion of the library; count on the stated rates, not on these rows.

The opening six records as a preview:
SMILES Env_fusion_inh Yeast_UUG_start
COc1ccc(-c2cnc3c(c2)C(=O)N([C@@H](C)CO)C[C@@H](C)[C@H](CN(C)Cc2ccccc2)O3)cc1 -4.0[16.7_µM] 11.5
Cc1ccc(S(=O)(=O)NCC[C@@H]2CC[C@@H](NC(=O)Nc3ccccc3F)[C@H](CO)O2)cc1 1.8[16.7_µM] -9.6
CC(=O)Nc1ccc2c(c1)C(=O)N(C)[C@@H]1CC[C@@H](CC(=O)NCc3ccc(F)cc3)O[C@@H]1CO2 2.2[16.7_µM] 6.5
COc1cccc(NC(=O)N[C@H]2C=C[C@@H](CC(=O)NCc3ccncn3)O[C@H]2CO)c1 2.0[16.7_µM] 13.1
C[C@@H]1CN([C@@H](C)CO)C(=O)Cc2cc(N(C)C)ccc2O[C@H]1CN(C)Cc1ccc(Cl)c(Cl)c1 16.6[16.7_µM] 0.5
CC(=O)Nc1ccc2c(c1)C(=O)N(C)[C@@H]1CC[C@H](CC(=O)NCc3ccc(F)cc3)O[C@H]1CO2 11.5[16.7_µM] 0.4

The listing, previewed entries included:
SMILES Env_fusion_inh Yeast_UUG_start
COc1ccc(-c2cnc3c(c2)C(=O)N([C@@H](C)CO)C[C@@H](C)[C@H](CN(C)Cc2ccccc2)O3)cc1 -4.0[16.7_µM] 11.5
Cc1ccc(S(=O)(=O)NCC[C@@H]2CC[C@@H](NC(=O)Nc3ccccc3F)[C@H](CO)O2)cc1 1.8[16.7_µM] -9.6
CC(=O)Nc1ccc2c(c1)C(=O)N(C)[C@@H]1CC[C@@H](CC(=O)NCc3ccc(F)cc3)O[C@@H]1CO2 2.2[16.7_µM] 6.5
COc1cccc(NC(=O)N[C@H]2C=C[C@@H](CC(=O)NCc3ccncn3)O[C@H]2CO)c1 2.0[16.7_µM] 13.1
C[C@@H]1CN([C@@H](C)CO)C(=O)Cc2cc(N(C)C)ccc2O[C@H]1CN(C)Cc1ccc(Cl)c(Cl)c1 16.6[16.7_µM] 0.5
CC(=O)Nc1ccc2c(c1)C(=O)N(C)[C@@H]1CC[C@H](CC(=O)NCc3ccc(F)cc3)O[C@H]1CO2 11.5[16.7_µM] 0.4
Cc1ccc(S(=O)(=O)N(C)C[C@H]2OCCCC[C@H](C)Oc3ccc(NC(=O)Nc4ccc5c(c4)OCO5)cc3C(=O)N([C@H](C)CO)C[C@@H]2C)cc1 -3.8[16.7_µM] -11.6
Cc1noc(C)c1NC(=O)Nc1ccc2c(c1)C(=O)N([C@@H](C)CO)C[C@@H](C)[C@H](CN(C)Cc1ccc(C(F)(F)F)cc1)OCCCC[C@H](C)O2 -24.3[16.7_µM] 4.5
O=C(C[C@@H]1C=C[C@@H](NC(=O)CC2CC2)[C@@H](CO)O1)NCc1ccc(Cl)cc1 -11.0[16.7_µM] -7.8
CCC(=O)N1C[C@@H](C)[C@@H](OC)CN(C)C(=O)c2cc(NC(=O)Nc3ccccc3)ccc2OC[C@H]1C -2.4[16.7_µM] -2.0
C[C@@H]1CN([C@H](C)CO)C(=O)c2cc(C#CCN(C)C)cnc2O[C@@H]1CN(C)C(=O)c1ccc2c(c1)OCO2 2.0[16.7_µM] 11.2
COc1ccc(-c2cnc3c(c2)C(=O)N([C@H](C)CO)C[C@H](C)[C@@H](CN(C)C)O3)cc1 15.6[16.7_µM] -3.2
C[C@@H]1CN([C@H](C)CO)C(=O)Cc2cc(NC(=O)Cc3cn(C)c4ccccc34)ccc2O[C@H]1CN(C)C(=O)Nc1ccccc1 5.5[16.7_µM] -2.0
COc1cccc(NC(=O)N[C@@H]2CC[C@H](CC(=O)N3CCOCC3)O[C@@H]2CO)c1 8.5[16.7_µM] 1.7
Cc1noc(C)c1NC(=O)Nc1ccc2c(c1)C(=O)N([C@H](C)CO)C[C@@H](C)[C@@H](CN(C)C(=O)Nc1c(C)noc1C)O2 -59.3[16.7_µM] -3.1
CC(C)NC(=O)Nc1ccc2c(c1)C(=O)N([C@@H](C)CO)C[C@@H](C)[C@@H](CN(C)C(=O)Nc1ccc(C(F)(F)F)cc1)OCCCC[C@@H](C)O2 78.9*[16.7_µM] -8.9
CCC(=O)Nc1ccc2c(c1)C(=O)N(C)[C@H]1CC[C@H](CC(=O)N3CCc4ccccc4C3)O[C@@H]1CO2 8.2[16.7_µM] -14.3
CNC(=O)C[C@H]1CC[C@H]2[C@H](COc3ccc(NC(=O)c4cscn4)cc3C(=O)N2C)O1 4.5[16.7_µM] -9.6
C[C@@H]1CCCCO[C@H](CN(C)C(=O)Nc2ccccc2)[C@@H](C)CN([C@@H](C)CO)C(=O)c2cc(NC(=O)Cc3ccccc3)ccc2O1 -118.0[16.7_µM] 2.5
COc1ccc(NC(=O)Nc2ccc3c(c2)C(=O)N([C@@H](C)CO)C[C@H](C)[C@@H](CN(C)Cc2ccc(Cl)c(Cl)c2)OCCCC[C@H](C)O3)cc1 27.6[16.7_µM] 1.8
C[C@H](CO)N1C[C@H](C)[C@H](CN(C)S(C)(=O)=O)Oc2ncc(C3=CCCC3)cc2C1=O -23.3[16.7_µM] -11.5
Cc1ccc(S(=O)(=O)Nc2ccc3c(c2)CC(=O)N([C@@H](C)CO)C[C@H](C)[C@H](CN(C)Cc2ccc(-c4ccccc4)cc2)O3)cc1 14.6[16.7_µM] 12.2
C[C@@H]1CN([C@H](C)CO)C(=O)Cc2cc(NS(=O)(=O)c3ccc(F)cc3)ccc2O[C@@H]1CN(C)C(=O)Nc1ccc(C(F)(F)F)cc1 -11.2[16.7_µM] 5.8
CO[C@H]1CN(C)C(=O)c2ccc(NC(=O)c3cccc(F)c3)cc2OC[C@H](C)N(C(C)=O)C[C@H]1C 6.8[16.7_µM] -0.1
CCC(=O)Nc1ccc2c(c1)OC[C@H](C)N(C(=O)c1ccccc1F)C[C@H](C)[C@@H](OC)CN(C)C2=O -2.8[16.7_µM] 0.6

Next section:
SMILES Env_fusion_inh Yeast_UUG_start
COc1cccc(-c2ccc3c(c2)O[C@@H](CN(C)Cc2cncnc2)[C@H](C)CN([C@H](C)CO)S3(=O)=O)c1 4.7[16.7_µM] -3.6
C[C@@H]1CN([C@@H](C)CO)C(=O)Cc2cc(NC(=O)Nc3ccc(F)cc3)ccc2O[C@H]1CN(C)CC1CC1 14.3[16.7_µM] 4.4
CN(C)C(=O)C[C@H]1C=C[C@H](NC(=O)C2CCC2)[C@@H](CO)O1 28.8[16.7_µM] -7.3
C[C@@H](NC(=O)C[C@H]1CC[C@H](NC(=O)Cc2ccccn2)[C@@H](CO)O1)c1ccccc1 -5.2[16.7_µM] -11.0
C[C@H]1CCCCO[C@@H](CN(C)S(=O)(=O)c2cn(C)cn2)[C@@H](C)CN([C@@H](C)CO)C(=O)c2cc(NS(=O)(=O)c3ccc(Cl)cc3)ccc2O1 8.4[16.7_µM] -0.1
C[C@@H]1CN([C@H](C)CO)C(=O)c2cc(NS(=O)(=O)c3ccccc3)ccc2O[C@@H](C)CCCCO[C@@H]1CN(C)C -1.5[16.7_µM] 19.9
O=C(Nc1ccccc1F)N[C@H]1CC[C@H](CCNC(=O)C2CCCC2)O[C@@H]1CO -6.0[16.7_µM] 6.0
CCCC#Cc1ccc2c(c1)O[C@@H](CN(C)C(=O)c1ccccc1)[C@H](C)CN([C@H](C)CO)S2(=O)=O 5.2[16.7_µM] 9.7
Cc1ccc(S(=O)(=O)Nc2ccc3c(c2)C(=O)N([C@H](C)CO)C[C@H](C)[C@@H](CN(C)C(=O)NC2CCCCC2)OCCCC[C@H](C)O3)cc1 -152.2[16.7_µM] 1.9
C[C@@H]1CCCCO[C@H](CN(C)Cc2ccc(C(=O)O)cc2)[C@H](C)CN([C@H](C)CO)C(=O)c2cc(NS(=O)(=O)c3ccc(Cl)cc3)ccc2O1 -18.1[16.7_µM] 6.8
CCCNC(=O)N(C)C[C@H]1Oc2ncc(-c3ccccc3F)cc2C(=O)N([C@@H](C)CO)C[C@@H]1C 4.8[16.7_µM] 5.8
CCS(=O)(=O)N1[C@H](C#N)[C@@H](c2ccc(C#CC(C)C)cc2)[C@H]1CO 11.0[16.7_µM] 5.5
C[C@H](CO)N1C[C@H](C)[C@H](CN(C)C(=O)Nc2cccc3ccccc23)Oc2ncc(C#CC(C)(C)O)cc2C1=O 8.3[16.7_µM] 13.4
C[C@H](CO)N1C[C@H](C)[C@@H](CN(C)S(=O)(=O)c2cn(C)cn2)OCCCC[C@H](C)Oc2ccc(NC(=O)Cc3ccccc3)cc2C1=O -9.5[16.7_µM] 6.5
C/C=C/c1ccc2c(c1)O[C@H](CN(C)C(=O)c1ccc3c(c1)OCO3)[C@@H](C)CN([C@H](C)CO)S2(=O)=O -3.1[16.7_µM] 6.4
C[C@@H]1CN([C@H](C)CO)C(=O)c2cc(C#Cc3cccc(F)c3)cnc2O[C@H]1CN(C)Cc1ccccn1 -9.6[16.7_µM] 2.0
CCC(=O)N(C)C[C@@H]1Oc2cc(-c3cccnc3)ccc2S(=O)(=O)N([C@@H](C)CO)C[C@H]1C 10.4[16.7_µM] -14.1
CC(C)C#Cc1cnc2c(c1)C(=O)N([C@@H](C)CO)C[C@@H](C)[C@@H](CN(C)C(=O)Nc1cc(F)ccc1F)O2 -3.7[16.7_µM] 15.7
COc1ccccc1NC(=O)N[C@H]1CC[C@H](CCNC(=O)c2ccc3c(c2)OCO3)O[C@@H]1CO -1.4[16.7_µM] 16.6
C[C@H](CO)N1C[C@H](C)[C@H](CN(C)Cc2ccc(-c3ccccc3)cc2)Oc2ccc(NC(=O)Nc3ccc4c(c3)OCO4)cc2CC1=O 37.4[16.7_µM] -5.4
CN1C(=O)c2cc(NC(=O)c3ccc(C(F)(F)F)cc3)ccc2OC[C@@H]2O[C@@H](CC(=O)O)CC[C@@H]21 12.7[16.7_µM] -5.6
C[C@@H]1CCCCO[C@@H](CN(C)C(=O)Nc2ccc(C(F)(F)F)cc2)[C@H](C)CN([C@@H](C)CO)C(=O)c2cc(NC(=O)CCC(F)(F)F)ccc2O1 -0.8[16.7_µM] -11.5
CCC(=O)N1C[C@H](C)[C@@H](OC)CN(C)C(=O)c2cc(NC(=O)C3CC3)ccc2OC[C@H]1C -1.5[16.7_µM] 2.4
CNC[C@H]1Oc2cc(C#CCN(C)C)ccc2S(=O)(=O)N([C@@H](C)CO)C[C@H]1C 17.4[16.7_µM] -11.2
O=C(C[C@H]1C=C[C@H](NC(=O)c2ccncc2)[C@H](CO)O1)NCCc1ccncc1 6.5[16.7_µM] 5.4

(list continues)
SMILES Env_fusion_inh Yeast_UUG_start
CCC(=O)N(C)C[C@H]1Oc2cc(-c3cccc(C#N)c3)ccc2S(=O)(=O)N([C@H](C)CO)C[C@H]1C -8.0[16.7_µM] 22.5
C[C@@H]1CCCCO[C@@H](CN(C)C(=O)Nc2ccc(F)cc2)[C@@H](C)CN([C@@H](C)CO)C(=O)c2cc(NC(=O)Nc3cccc4ccccc34)ccc2O1 10.4[16.7_µM] -5.1
C[C@@H]1CCCCO[C@@H](CN(C)S(=O)(=O)c2cccs2)[C@@H](C)CN([C@@H](C)CO)C(=O)c2cc(NS(=O)(=O)c3ccc(F)cc3)ccc2O1 -19.8[16.7_µM] 0.1
COc1ccc(NC(=O)N(C)C[C@H]2OCCCC[C@@H](C)Oc3ccc(NS(C)(=O)=O)cc3C(=O)N([C@@H](C)CO)C[C@H]2C)cc1 -14.1[16.7_µM] 22.0
CCCNC(=O)C[C@@H]1CC[C@@H]2[C@H](COc3ccc(NC(=O)c4cc(F)cc(F)c4)cc3C(=O)N2C)O1 34.8[16.7_µM] -4.0
CNC[C@@H]1Oc2cc(-c3cccc(C(=O)N(C)C)c3)ccc2S(=O)(=O)N([C@H](C)CO)C[C@H]1C -2.4[16.7_µM] -5.4
COc1ccc(NC(=O)N(C)C[C@H]2Oc3ncc(C4=CCCC4)cc3C(=O)N([C@H](C)CO)C[C@@H]2C)cc1 6.7[16.7_µM] 19.6
CCCNC(=O)N(C)C[C@H]1Oc2ncc(-c3ccccc3)cc2C(=O)N([C@@H](C)CO)C[C@@H]1C -25.3[16.7_µM] -3.5
C[C@@H](NC(=O)C[C@@H]1C=C[C@H](NC(=O)C2CCOCC2)[C@@H](CO)O1)c1ccccc1 3.2[16.7_µM] -3.5
CCCNC(=O)Nc1ccc2c(c1)OC[C@H](C)N(CC1CCCC1)C[C@H](C)[C@H](OC)CN(C)C2=O -6.7[16.7_µM] -6.4
C[C@H](CO)N1C[C@H](C)[C@H](CN(C)C(=O)c2ccc3c(c2)OCO3)Oc2ncc(C#Cc3ccccc3F)cc2C1=O 4.7[16.7_µM] 18.8
COc1ccc(NC(=O)N(C)C[C@H]2OCCCC[C@@H](C)Oc3ccc(NC(=O)C4CCCCC4)cc3C(=O)N([C@@H](C)CO)C[C@H]2C)cc1 -3.5[16.7_µM] 15.9
COCC(=O)N(C)C[C@@H]1Oc2ncc(-c3ccccc3OC)cc2C(=O)N([C@H](C)CO)C[C@@H]1C 23.3[16.7_µM] 2.4
COc1ccc(NC(=O)Nc2ccc3c(c2)C(=O)N([C@H](C)CO)C[C@H](C)[C@H](CN(C)S(=O)(=O)c2c(C)noc2C)OCCCC[C@H](C)O3)cc1 45.6[16.7_µM] 2.1
O=C(C[C@H]1C[C@H]2c3cc(NC(=O)C4CCC4)ccc3O[C@H]2[C@@H](CO)O1)NCc1ccccc1F 5.0[16.7_µM] -6.6
C[C@@H]1CN([C@@H](C)CO)S(=O)(=O)c2ccc(C#Cc3ccccn3)cc2O[C@@H]1CN(C)CC1CC1 -15.6[16.7_µM] -13.3
Cc1noc(C)c1S(=O)(=O)N(C)C[C@@H]1OCCCC[C@@H](C)Oc2ccc(NS(C)(=O)=O)cc2C(=O)N([C@@H](C)CO)C[C@@H]1C -9.6[16.7_µM] 3.8
COc1cccc(S(=O)(=O)Nc2ccc3c(c2)[C@H]2C[C@H](CC(=O)NCC(F)(F)F)O[C@H](CO)[C@H]2O3)c1 -12.7[16.7_µM] 6.8
C[C@@H]1CCCCO[C@H](CN(C)C(=O)Cc2ccccc2)[C@H](C)CN([C@@H](C)CO)C(=O)c2cc(NC(=O)c3ccccc3)ccc2O1 -7.1[16.7_µM] -2.3
